Assay outcomes from PubChem BioAssay.
NS1 function inh – qHTS Assay for Inhibitors of Influenza NS1 Protein Function; Potency, µM (series often up to 46.1 µM), inactives show at the highest dose activity, positive = more growth; 270,000 tested, 0.4% active; S. cerevisiae slowed by influenza A NS1, growth recovery by OD600; active means well fitted rising curve with a large enough effect; inconclusive means small, poorly fitted or top-dose-only effect; inactive means no such curve, though single readings can be large or run the other way; also: nearly all actives have a fitted effect of over 50% in size
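Read-out: OD600 growth recovery of NS1-expressing budding yeast. Cells grown overnight at 30C in -URA glucose medium, washed, resuspended and diluted 1:100 in 2% galactose assay medium, pH 6.0. Same strain lacking NS1 served as positive control.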
Lassa entry inh – qHTS for Inhibitors of binding or entry into cells for Lassa Virus; Lassa virus pseudotype entry inhibition, cell reporter; control for the full effect not named in the record; Potency, µM (doses to about 37.9 µM), inactives show at the highest dose activity change, negative = inhibition, most hits filed as inhibitors; 300,000 tested, 1.2% active; AID 540256, 2011; active means well fitted inhibition curve with a large enough effect; inconclusive means small, poorly fitted or top-dose-only effect, or effect the other way; inactive means flat fitted curve, though single readings scatter; tested in HEK293 cells; also: % is scaled to controls: 0 for no effect and ±100 for the full control effect; nearly all actives have a fitted effect of over 50% in size; luciferase read-out
SARS PLP yeast – qHTS of Yeast-based Assay for SARS-CoV PLP | S. cerevisiae expressing SARS-CoV PLpro, growth rescue; control for the full effect not named in the record | Potency, µM (doses to about 32.9 µM), without a hit: at the highest dose activity, positive = growth rescue | 330,000 tested, 0.19% active | AID 485353, 2010; active means well fitted rising curve with a large enough effect; inconclusive means small, poorly fitted or top-dose-only effect; inactive means no such curve, though single readings can be large or run the other way; also: 0% is about no effect; nearly all actives have a fitted effect of over 55% in size; growth read by luminescence after 48 h
MARV entry inh – qHTS for inhibitors of binding or entry into cells for Marburg Virus; 300,000 tested, 1.8% active; Potency, µM (doses to about 37.8 µM), inactives show at the top dose activity change, negative = inhibition, most hits filed as inhibitors; Marburg virus pseudotyped entry inhibition, cell reporter; control for the full effect not named in the record; about a third of the inactives were read at about 46 µM; AID 540276, 2011; active = well fitted inhibition curve with a large enough effect; inconclusive = small, poorly fitted or top-dose-only effect, or effect the other way; inactive = flat fitted curve, though single readings scatter; tested in HEK293 cells; about a fifth of its hits are not listed in these tables; also: % is scaled to controls: 0 for no effect and ±100 for the full control effect; luciferase read-out
StopGo reporter – High Throughput Screening for Foot and Mouth Disease Virus Antivirals. 410,000 tested, 1.2% active. human cells with a luciferase reporter of 2A StopGo recoding; control for the full effect not named in the record. Potency, µM (top dose mostly 57.9 µM), for the others: at the highest dose signal change, negative = less light; active = well fitted falling curve with a large enough effect; inconclusive = small, poorly fitted or top-dose-only effect; inactive = no such curve, though single readings can be large or run the other way; tested in HEK293T cells; also: % is scaled to controls: 0 for no effect and ±100 for the full control effect; nearly all actives have a fitted effect of over 45% in size; luciferase light after 4 h
RE007 growth inh – qHTS Assay for Inhibitors of the HIV-1 protein Vpr. S. pombe RE007 Vpr strain, BacTiter-Glo ATP luminescence, 24 h; control for the full effect not named in the record. Potency, µM (doses to about 92.2 µM), for the others: at the highest dose activity change, negative = less growth. 360,000 tested, 0.21% active; active = well fitted falling curve with a large enough effect; inconclusive = small, poorly fitted or top-dose-only effect; inactive = no such curve, though single readings can be large or run the other way;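 also: % is scaled to controls: 0 for no effect and ±100 for the full control effect; nearly all actives have a fitted effect of over 50% in size; the assay follows cell death caused by Vpr and the record does not say whether a fall means rescue or toxicity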
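Fission yeast RE007 carrying one integrated HIV-1 vpr copy, seeded at OD 0.01 in PMG+AL medium with 23 nL pinned compound. Grown 24 h at 30 degrees; viability read by BacTiter-Glo luminescence after 5 min.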
Cruzain Triton – qHTS Assay for Promiscuous and Specific Inhibitors of Cruzain (with detergent). Cruzipain (Trypanosoma cruzi), P25779. purified cruzain, Z-FR-AMC fluorescence, 0.01% Triton. Potency, µM, without a hit: max response, negative = inhibition, actives largely listed as inhibitors. 200,000 tested, 0.43% active. AID 1478, 2009;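 also: plate controls were neutral wells for no effect and buffer without enzyme for full effect; nearly all actives have a fitted effect of over 40% in size; top concentration of the series not given in the record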
Target sequence (P25779 123-467 limits assumed): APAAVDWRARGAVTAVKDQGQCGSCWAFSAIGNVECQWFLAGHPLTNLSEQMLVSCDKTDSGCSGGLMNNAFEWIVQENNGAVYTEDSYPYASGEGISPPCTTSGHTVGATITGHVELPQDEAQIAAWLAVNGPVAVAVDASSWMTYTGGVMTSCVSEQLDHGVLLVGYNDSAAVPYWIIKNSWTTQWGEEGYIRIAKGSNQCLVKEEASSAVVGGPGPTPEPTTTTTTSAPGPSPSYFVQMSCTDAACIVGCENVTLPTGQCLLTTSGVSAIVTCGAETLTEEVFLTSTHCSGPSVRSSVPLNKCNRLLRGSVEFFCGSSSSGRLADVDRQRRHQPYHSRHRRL
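Steps: dispense cruzain (1.5 nM final) in acetate buffer pH 5.5 with DTT and 0.01% Triton X-100; pin-transfer compounds; incubate 15 min RT; add Z-FR-AMC (2 uM final); read fluorescence every 30 s, using the 60 s intensity change.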
Cruzain inh noDet – qHTS Assay for Promiscuous and Specific Inhibitors of Cruzain (without detergent); purified cruzain, Z-FR-AMC fluorescence, no detergent; Potency, µM, for the others: max response, negative = inhibition, most hits filed as inhibitors; 200,000 tested, 2.3% active;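 also: plate controls were enzyme without inhibitor for no effect and buffer without enzyme for full effect; nearly all actives have a fitted effect of over 40% in size; top concentration of the series not given in the record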
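Purified cruzain at 1.5 nM, pre-incubated 15 min with compound at room temperature in 100 mM sodium acetate pH 5.5, 5 mM DTT, 0.00005% Triton X-100. Reaction started with 2 uM Z-FR-AMC; AMC fluorescence increase over 60 s gives rate.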
Numbers without * were called inactive; ? = inconclusive; . = not tested or not shown; [ ] = another dose, or the depositor's remark. Unless noted, calls follow the shape of the dose curve; as a rule, active = well fitted curve in the direction sought with a large enough effect; inconclusive = small, poorly fitted or top-dose-only effect, or another doubt; inactive = no such curve, though single readings can be large; an effect the other way counts as inactive or inconclusive. Potency is read from the fitted curve at half-maximal effect.

SMILES	NS1 function inh	Lassa entry inh	SARS PLP yeast	MARV entry inh	StopGo reporter	RE007 growth inh	Cruzain Triton	Cruzain inh noDet
CCCCCCOC(=O)NCC(O)c1ccccc1 (stereo not given)	-1%	-29%	-3%	-1%	0%	-14%	-0.7%	-1%
CCC(C)N=CC1=C(O)C(C(=O)OC)C(C)(C)CC1=O (stereo not given)	2%	17%	4%	?	-5%	-5%	-2.0%	-18%
COc1ccc(CC(=O)NNC(=O)c2cc(Cl)ccc2OC)cc1	.	-8%	-1%	0%	-13%	-22%	.	.
COc1ccc(C(C)=O)cc1CSc1nc(NCCc2ccccc2)c2ccccc2n1	.	10%[46.1 µM]	.	.	0%	.	-1.1%	9%
C/C(=N\NC(=O)C(N)=O)c1cccc(C(F)(F)F)c1	2%	-3%	-2%	17%[46.1 µM]	1%	12%	.	.
CCCCC(=O)NC(Nc1nc(C2CC2)cs1)(C(=O)OCC)C(F)(F)F (stereo not given)	6%	-1%	-5%	?	61%[activator]	3%	6.6%	-3%
CC(C)(C)N1CC(C(=O)O)CC1=O (stereo not given)	3%	9%	1%	17%[46.1 µM]	-1%	8%	.	.
CCCC1OC(c2ccco2)OCC1CC (stereo not given)	.	-12%[46.1 µM]	.	?	-18%	29%	.	.
O=C(NCC1CCCO1)c1ccc2c(=O)n(Cc3ccco3)c(SCC(=O)N3CCCC3)nc2c1 (stereo not given)	4%	-4%	-4%	-18%	3%	1%	0.5%	11%
CCOc1ccc(NC(=O)Cn2nc(SC)c(S(=O)(=O)c3ccccc3)c2N)cc1	.	19%[46.1 µM]	.	.	-17%	.	-3.7%	10%
O=C(N1CCCCC1)C12CC3CC(C1)CC(C(=O)N1CCCCC1)(C3)C2	4%	21%	-3%	0%	-10%	5%	-3.6%	2%
CCN(CC)CCOC(=O)c1ccc([N+](=O)[O-])cc1	1%	0%	0%	?	-1%	5%	.	.
CC(C)CC(=O)N(c1nnc(-c2cccnc2)s1)C1CCCC1	-17%	-28%[46.1 µM]	0%	-8%[46.1 µM]	2%	-20%	.	.
COc1ccc(C2/C=C\CN(S(=O)(=O)/C=C/c3ccccc3)[C@H](Cc3ccccc3)C(=O)N2Cc2ccc(F)cc2)cc1 (stereo not given in full)	10%	.	1%	.	21%	3%	.	.
O=C(c1ccc2c(c1)C(=O)N(CCCO)C2=O)c1ccc2c(c1)C(=O)N(CCCO)C2=O	0%	-1%	0%	10%	-10%	-11%	1.0%	-2%
CCCNC(=S)NNC(=O)c1cc(-c2cccnc2)nc2ccccc12	9%	.	2%	.	4%	18%	.	.
CCCC(C)NC(=O)COc1ccc(S(=O)(=O)c2ccc(OCC(=O)NC(C)CCC)cc2)cc1 (stereo not given)	22%	?	0%	?	-17%	-13%	-2.0%	?
COC(=O)c1nc(NC(=O)c2ccc(Br)cc2)n[nH]1	-68%	0%	.	26%	-11%	10%	4.6%	-3%
Cc1ccc(S(=O)(=O)N2CCOCC2)cc1C(=O)NCc1cccs1	0%	-3%	0%	15%[46.1 µM]	9%	-11%	.	.
Cc1ccc(C(=O)N2CCN(Cc3ccccc3)CC2)o1	9%	.	-1%	.	-14%	-8%	.	.
COc1ccccc1N1CCN(C(=O)c2ccc(C(C)(C)C)cc2)CC1	-39%	-12%	9%	-29%	?	-21%	-9.0%	?
COc1ccc(CC2(CO)CCN(Cc3ccc(NC(C)=O)cc3)CC2)cc1	1%	7%	0%	-4%[46.1 µM]	-9%	13%	.	.
CC1(C(=O)O)CCC(C(=O)Nc2ccc(S(N)(=O)=O)cc2)C1(C)C (stereo not given)	3%	-4%	0%	9%	-14%	21%	3.3%	-1%
COC(=O)CSc1nc(C2CC2)cc(C(F)(F)F)c1C#N	-14%	1%	6%	3%	?	-16%	-0.3%	-2%
Cc1cc(N/N=C/c2cccc(Br)c2)nc2ccccc12	-9%	13%	-53%	-15%	39%[activator]	.	-14%	9%
(listing goes on)
SMILES	NS1 function inh	Lassa entry inh	SARS PLP yeast	MARV entry inh	StopGo reporter	RE007 growth inh	Cruzain Triton	Cruzain inh noDet
COc1ccc(-c2nc(N)n[nH]2)cc1OC	1%	3%	0%	-4%	-9%	-3%	-3.4%	6%
Cc1ccccc1C(=O)Oc1ccc(-c2csnn2)cc1	-7%	16%	-1%	13%[46.1 µM]	56%[activator]	-1%	.	.
Cc1ccc(Cl)cc1N1CCN(CC(O)COC(C)C)CC1 (stereo not given)	-1%	.	-6%	.	-27%	-3%	.	.
CCCc1nc(SCC(=O)Nc2ccccc2)c2c(=O)n(C)c(=O)n(C)c2n1	22%	.	12%	2%	-27%	-6%	3.7%	-4%
CCC1CN(C(=O)N2CCC(C(=O)NCc3cccs3)CC2)c2ccccc2O1 (stereo not given)	.	1%[46.1 µM]	.	.	?	.	-1.9%	11%
COc1ccc(CNC(=O)C(C)OC(=O)CO/N=C(\C)c2ccc3c(c2)OCO3)cc1 (stereo not given)	.	-1%	-3%	3%	-22%	-12%	.	.
Cc1noc(C)c1COC(=O)C1CCN(S(=O)(=O)c2c(Cl)cccc2Cl)CC1	.	1%	4%	?	?	-13%	.	.
COC(=O)c1sccc1S(=O)(=O)N(CC(=O)NCc1ccc(C)cc1)c1ccc(Cl)cc1	.	?	.	.	-1%	.	-3.1%	20%
COc1ccc(Br)cc1/C=N/N1C(=O)CSC1=S	-8%	?	-2%	-3%	-13%	-7%	.	.
Cc1ccc(CS(=O)(=O)Cc2ccc(C(=O)NCCc3ccc(Cl)cc3)o2)cc1	.	-5%[46.1 µM]	.	.	-23%	.	1.1%	-5%
CCCCCCCCCCOC(=O)C[N+](C)(C)CC1CCCCC1O (stereo not given)	-1%	11%	-3%	?	-17%	-14%	.	.
NC(=O)C1CCN(c2ccc(S(=O)(=O)N3CCCCC3)cc2[N+](=O)[O-])CC1	.	-5%	-14%	-28%	-24%	0%	.	.
Cc1[nH]c(=O)[nH]c(=O)c1C1N2CC3(C(C)C)CN1CC(C(C)C)(C2)C3=O (stereo not given)	.	2%[46.1 µM]	.	20%[46.1 µM]	-11%	.	2.0%	-12%
COc1ccccc1N(Cc1ccccc1)S(=O)(=O)c1cccc(C(=O)Nc2ccc(C(C)=O)cc2)c1	11%	-4%	2%	35%	22%	6%	-2.1%	?
CCC(=O)NC(=S)Nc1ccc(NC(=O)COc2ccc(Cl)cc2Cl)cc1	10%	-7%	4%	0%	19%	-12%	-4.6%	?
C=CCC1(C#N)C(SC)=NC2=C(C(=O)CC(C)(C)C2)C1c1ccc(Br)cc1 (stereo not given)	-9%	?	-96%	?	?	13%	-7.3%	0%
NS(=O)(=O)c1cc(C(=O)NNC(=O)c2ccc3c(c2)OCO3)ccc1Cl	.	15%	-3%	1%	4%	-10%	.	.
CCOC(=O)c1ccccc1NC(=O)CSc1cc(C)[nH]c(=O)n1	.	5%[46.1 µM]	.	.	-6%	.	-0.1%	6%
O=c1c2ccccc2nc(CN2CCCCCC2)n1-c1ccc(F)cc1	?	2%	-6%	-17%	-12%	4%	-0.6%	1%
CCOC(=O)[C@@H]1[C@H]2COc3ccc(Br)cc3[C@@H]2N2C(=O)N(c3ccc(C)cc3)C(=O)[C@]12C	27%	.	0%	.	-8%	-1%	.	.
CCc1ccc(NC(=O)CN2CCc3ccccc3C2)cc1	-10%	11%	2%	0%	46%[activator]	-1%	0.3%	-10%
CC(=O)Nc1ccc(S(=O)(=O)NCCc2c[nH]c3ccc(C)cc23)cc1	23%	?	-1%	-3%	23%	11%	.	.
COc1cc2c(cc1OC)CN(C(=O)CCOc1ccccc1)CC2	-27%	?	-1%	?	1%	-16%	.	.
CCOc1ccc(OCc2ccc(C(=O)NCC3CCCO3)o2)cc1 (stereo not given)	-19%	-2%	-1%	-9%	.	6%	-4.7%	0%
CCN(CC)C(=O)CSc1nnc(-c2cc3ccccc3cc2O)n1CC	0%	-18%	-10%	-4%	?	1%	1.0%	-5%
The results go on.
SMILES	NS1 function inh	Lassa entry inh	SARS PLP yeast	MARV entry inh	StopGo reporter	RE007 growth inh	Cruzain Triton	Cruzain inh noDet
Cc1ccc(S(=O)(=O)NC2CC(=O)N(c3ccc4c(c3)OCCO4)C2)cc1 (stereo not given)	.	-13%	0%	-19%	4%	-10%	.	.
COC(=O)c1ccc(CSc2nc3ccccc3c(=O)n2-c2ccccc2)o1	10%	?	-1%	0%	?	11%	0.4%	?
Cc1cccc(/C=N/NC(=O)c2cc(-c3cccnc3)nc3ccccc23)c1	.	.	2%	-3%[46.1 µM]	-5%	-8%	.	.
O=C(CN1CCCCC1)N/N=C/c1cc2ccccc2nc1Cl	.	?	4%	1%[46.1 µM]	21%	-13%	.	.
c1ccc(CCNc2cnccn2)cc1	-1%	.	0%	.	14%	-2%	.	.
O=C(CNC(=O)c1ccc(Cl)cc1)OCCCOC(=O)CNC(=O)c1ccc(Cl)cc1	-4%	0%	10%	12%	-14%	-9%	.	.
Fc1ccc2nc(C3CCCCN3Cc3nc(CC4CC4)no3)[nH]c2c1 (stereo not given)	2%	.	0%	-9%[46.1 µM]	-30%	6%	.	.
Cc1ccc(-n2nc(C(=O)Nc3ccc(Br)cc3C)c(=O)n(C)c2=O)cc1	.	2%[46.1 µM]	.	.	5%	.	-0.5%	-4%
c1ccc(C(c2ccccc2)c2noc(CN3CCN(CC4CC4)CC3)n2)cc1	4%	-30%[46.1 µM]	0%	?	-16%	10%	.	.
c1ccc2c(CSc3ncnc4nc[nH]c34)cccc2c1	-30%	?	-6%	-12%[46.1 µM]	?	7%	.	.
OCC(O)C1OCOC(C(O)CO)C1O (stereo not given)	.	6%	.	?	-9%	2%	.	.
